# Screening data as filed in PubChem.
# Beta2AR agonist – agonists of human beta-2 adrenergic receptor inducing internalization; P07550; Am2.2-beta2AR cells, FAP receptor internalization, flow cytometry; reference of the scale not given here; response, % (no concentration beside the values); hit rate 0.43% among 340,000; AID 504454;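 active = response above a set limit, near 3 SD of response in nonfluorescent compounds, cut at about 42% in these data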;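 note: stock transfer was 100 nL into about 11 µL; a reference agonist was the positive control; negative values mostly stem from fluorescent compounds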
# Target sequence (P07550 whole entry, looked up): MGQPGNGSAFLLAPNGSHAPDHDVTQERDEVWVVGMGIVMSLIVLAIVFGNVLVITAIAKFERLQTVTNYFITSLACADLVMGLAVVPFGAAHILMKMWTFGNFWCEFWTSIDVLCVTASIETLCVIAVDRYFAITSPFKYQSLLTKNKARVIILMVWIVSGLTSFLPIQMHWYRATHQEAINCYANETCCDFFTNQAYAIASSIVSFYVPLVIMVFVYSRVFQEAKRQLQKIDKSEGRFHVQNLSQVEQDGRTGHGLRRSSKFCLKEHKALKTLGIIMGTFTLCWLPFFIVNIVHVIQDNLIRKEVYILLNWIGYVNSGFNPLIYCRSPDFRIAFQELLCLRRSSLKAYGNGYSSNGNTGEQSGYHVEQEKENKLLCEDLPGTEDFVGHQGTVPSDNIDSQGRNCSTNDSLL
# Calb FLC – affects C. albicans growth with fluconazole; AID 1979; C. albicans CaCi-2 (fluconazole-resistant clinical isolate) + fluconazole, Alamar Blue growth, 48 h; hit rate 0.57% among 300,000; growth inhibition, % (test concentration not listed);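 active = most replicates above 75%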;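 note: all wells also contain fluconazole at 8 µg/ml as a sub-toxic cotreatment; 0% = median of DMSO wells and 100% = median of geldanamycin control wells; wells of about 8 µL received 7.5 nL stock; the first replicate is given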
# T cruzi repl – blocks replication of Trypanosoma cruzi. T. cruzi beta-gal in NIH3T3, luminescence, 90 h. inhibition, % (concentration not given with the values). hit rate 1.4% among 300,000;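 active = mean inhibition across valid replicates above about 55%, limit read from the data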;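 note: signal also drops with host cell toxicity which is not excluded here; 0% = plate median of DMSO wells and 100% = zero luminescence signal; higher percent means less beta-gal luminescence so fewer parasites; stock transfer was 50 nL into about 50 µL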
# Beta cell apopt – beta cell apoptosis inhibition | INS-1E cytokine-induced death, ATP luminescence, 48 h; percent of positive-control rescue, neutral wells zero | protection from apoptosis, % (concentration not given with the values) | hit rate 0.8% among 300,000 | AID 435005;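 active = all replicates at 75% or more, or half of them and the mean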;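 note: 0% = cytokine-treated negative control wells and 100% = positive control rescue; higher means more ATP so stronger rescue from cytokine killing; wells of about 40 µL received 100 nL stock; the first replicate is given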
# LANA-H2A inh – blocks KSHV LANA binding to histone H2A/H2B; Q9QR71; cell-free LANA-H2A/H2B peptide, fluorescence polarization; inhibition, % (test concentration not listed); hit rate 0.6% among 320,000; AID 2629; in the data active = inhibition mostly above about 10%, no sharp cut-off; inactive = mostly below about 6.7%;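 note: stock transfer was 7.5 nL into about 10 µL; 0% = median of vehicle wells and 100% = median of positive control wells; one replicate is shown; the record names a cut of 25% in any replicate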
# ALR inh – blocks human ALR sulfhydryl oxidase activity. purified ALR, DTT oxidation, H2O2 HRP-luminol luminescence. inhibition, % (concentration not given with the values). hit rate 3.8% among 290,000. AID 485317;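 active = mean and each replicate at 75% or more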;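 note: stock transfer was 7.5 nL into about 7.5 µL; 0% = neutral wells and 100% = wells with inactivated enzyme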
# Target sequence (P55789 whole entry, looked up): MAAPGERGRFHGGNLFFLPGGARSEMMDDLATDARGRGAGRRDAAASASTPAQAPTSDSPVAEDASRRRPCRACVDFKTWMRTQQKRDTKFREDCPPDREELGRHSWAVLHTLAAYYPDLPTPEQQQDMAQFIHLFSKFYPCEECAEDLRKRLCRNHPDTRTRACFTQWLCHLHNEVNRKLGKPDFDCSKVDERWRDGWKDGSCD
# Bfl-1 A1 inh – inhibitors of the anti-apoptotic protein A1, read as caspase activation. AID 2462. caspase activation, % (no concentration beside the values). hit rate 0.066% among 330,000. MEF A1-2A-BIM cells, Caspase-Glo 3/7 luminescence, 3 h; percent of clofoctol response, vehicle zero;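 active = over half of replicate activation scores above 10%, or exactly half above 10 with the replicate mean above 10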;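 note: wells of about 30 µL received 50 nL stock; many hits fall short of the cut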
# rRNA inh HTS – inhibitors of bacterial rRNA selective over humanized ribosomes; E. coli WT GFP vs humanized-ribosome RFP mutants, fluorescence, 24 h; hits give low values; DMSO median 0, no signal -100; GFP signal change (wild-type ribosome), % (test concentration not listed); hit rate 1.6% among 350,000;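 active = significant combined selectivity score with lowered wild-type GFP, culture density cut under 30%, mutant RFP and density less affected; inactive = any of these conditions unmet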; note: one replicate is shown; some compounds called inactive have numbers as strong as hits
# rRNA inh HTS OD600 – second read-out of rRNA inh HTS, no call of its own (marks repeat the call); OD600 change, %; measured here: OD600 growth;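 optical density of the mix in the first replicate; 0 = DMSO median and -100 = no signal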
# rRNA inh HTS RFP – recorded beside rRNA inh HTS, whose call it bears; RFP signal change, %; measured here: RFP humanized mutant strains;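 first replicate; 0 = DMSO median and -100 = no signal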
# Active calls of the source: *; . = no result given; & = joins results of further samples. These rows are one share of the data. The share of hits here may be higher or lower than overall.
# The first 2 compounds, to show the layout:
SMILES,Beta2AR agonist,Calb FLC,T cruzi repl,Beta cell apopt,LANA-H2A inh,ALR inh,Bfl-1 A1 inh,rRNA inh HTS,rRNA inh HTS OD600,rRNA inh HTS RFP
CCNC(=O)c1cccc(NC(=O)CC2SC(N3CCCCC3)=NC2=O)c1 (stereo not drawn),-6,1,-8,0,18,-5,0.4,3,12,-0.5
CCN(Cc1ccncc1)C(=S)Nc1ccccc1,-1,-1,-7,0,0.2,0,0.7,13,8,2.7

# The listing, repeating the preview:
SMILES,Beta2AR agonist,Calb FLC,T cruzi repl,Beta cell apopt,LANA-H2A inh,ALR inh,Bfl-1 A1 inh,rRNA inh HTS,rRNA inh HTS OD600,rRNA inh HTS RFP
CCNC(=O)c1cccc(NC(=O)CC2SC(N3CCCCC3)=NC2=O)c1 (stereo not drawn),-6,1,-8,0,18,-5,0.4,3,12,-0.5
CCN(Cc1ccncc1)C(=S)Nc1ccccc1,-1,-1,-7,0,0.2,0,0.7,13,8,2.7
Cc1c(C(=O)OC(C)C)[nH]c2c1C(=O)CCC2,-2,-9,-2,0,4.6,-6,-0.1,.,.,.
Cc1nc2sc(C(=O)c3ccccc3)c(N)c2c(C)c1C,-20,-50,33,0,-2.4,-6,-0.4,10,4,2.0
Cc1ccc(/C=C/C(=O)OCC(=O)NC(C)c2ccccc2)o1 (stereo not drawn),-9,.,.,-5,2.9,-1,-0.5,.,.,.
CCOC(=O)CON1C(=O)C(=O)N(OCC(=O)OCC)C2CCCCC21 (stereo not drawn),-7,-12,-7,-2,-0.1,-10,-0.2,11,17,3.5
COc1ccccc1OCCC(=O)OCC(=O)c1[nH]c(C)c(C(C)=O)c1C,0,13,-6,-42,3.7,37,1.7,-13,-8,-1.0
CCOc1cc(/C=C/C(=O)Nc2ccc(C(=O)NCCN(CC)CC)cc2)ccc1OCC(C)C,25,16,51,20,4.1,7,-0.5,-52,-79,-14
Cc1cc(C)c(S(=O)(=O)Nc2ccc(O)c(Sc3ncn[nH]3)c2)cc1C,1,10,-1,-5,-7.5,49,-0.4,-2,-9,2.6
CC(C)CN(CC(C)C)S(=O)(=O)N1CCC(C(=O)NCc2ccc(F)cc2)CC1,-7,46,13,5,-0.2,-1,1.0,.,.,.
CCOC(=O)c1cnc(SCC(=O)c2ccc(C)cc2)nc1N,-10,-3,-19,-9,1.5,-3,-1.0,.,.,.
COC(=O)CCC(=O)Oc1ccc(OC(=O)CCC(=O)OC)cc1,.,6,-9,-6,-7.1,5,-0.3,.,.,.
O=C(N=C1N=C2C=CC=CN2Cc2ccccc21)c1ccc(S(=O)(=O)N2CCOCC2)cc1,-5,4,-8,2,-0.8,-5,-3.0,8,3,-1.3
Cc1cc(C)c2nc(NNC(=O)c3ccc(S(=O)(=O)N4CCCC(C)C4)cc3)sc2c1 (stereo not drawn),12,12,61*,107*,2.8,14,0.4,-2,-4,2.7
CCOc1ccccc1NC(=O)CN(C)S(=O)(=O)c1cnc[nH]1,4,10,-3,10,0.0,-2,-0.4,14,5,1.9
Cc1ccccc1NC(=O)C1CCCN1S(=O)(=O)c1ccccc1C(F)(F)F (stereo not drawn),-3,.,.,-8,-6.1,-7,-0.4,3,6,-1.4
COc1ccc(CCn2c(N3CCOCC3)nc3c2c(=O)[nH]c(=O)n3C)cc1,-2,-6,-4,-3,-0.1,99*,0.0,.,.,.
Cc1ccccc1NS(=O)(=O)c1ccc(C)c(C(N)=O)c1,7,-10,-14,-2,-3.4,-5,1.1,.,.,.
CC(C)Oc1ccc(CNC(=S)Nc2ccccc2)cc1Cl,-3,0,-8,-1,2.3,.,0.5,-53,-80,-16
CCN(CC)CCNC(=O)COc1ccc(OC)cc1,1&2,-11,-16,-4&-6,0.1&-2.6,-7&-1,2.9&1.0,14,19,2.4
O=C(COC(=O)Cc1ccc(Cl)cc1Cl)NCCC1=CCCCC1,6,-12,-6,-10,-5.1,-20,0.4,3,-4,-2.4
Cc1noc(C)c1S(=O)(=O)Nc1ccc2c(c1)CC(=O)N([C@H](C)CO)C[C@H](C)[C@H](CN(C)S(=O)(=O)c1ccc(F)cc1)O2,-14,.,.,1,5.7,-3,-0.5,0&5,0&2,1.2&-6.6
O=C1CN(C(=O)COc2ccccc2)CCN1,8,15,-4,3,-8.0,7,0.4,6,9,2.5
O=C(NC1CCN(Cc2ccccc2)CC1)C1CCN(c2nnc(-n3cccc3)s2)CC1,-9,1,30,1,3.7,-6,0.4,4,5,-0.3
O=C(Nc1cccc(C(F)(F)F)c1)C(Sc1cccc[n+]1[O-])c1ccccc1 (stereo not drawn),-1,-7,-2,1,1.6,78*,0.5,-6,-12,-3.8
CCOC(=O)C1CCN(CC(O)COCc2ccccc2)CC1 (stereo not drawn),-4,-2,-21,-3,2.4,2,0.0,0,3,-4.6
CC/C(C)=N/Nc1cccc([N+](=O)[O-])c1,7,92*,14,0,1.9,53,0.4,20,11,2.1
CCOc1ccccc1CNCCO,2,8,-13,-6,-1.5,-3,2.9,.,.,.
COc1ccc(NC(=O)COC(=O)Cc2cccs2)cc1OC,-3,5,-2,-1,-19,3,0.6,6,2,0.0
C=CCN(CC=C)C(=O)CCc1nnc(CCc2c[nH]c3ccccc23)o1,-1,-7,-4,-2,4.8,2,-0.3,-5,-6,-0.2
COc1cc(NC(=O)C2CCCO2)c(C(=O)O)cc1OC (stereo not drawn),-4,-1,-10,-5,4.4,-38,0.2,16,6,-10
O=C(Cc1c(F)cccc1Cl)Nc1ccc(-n2cnnn2)cc1,11,-22,.,4,-1.1,.,0.5,-3,11,-1.5
COc1ccc(N(CC(=O)NC2CCCCC2)S(=O)(=O)c2cccs2)cc1,8,.,.,6,-5.2,-11,-0.2,-4,4,-5.4
Cc1cc(C(=O)COC(=O)/C=C/c2ccco2)c(C)n1C,-6,.,.,-5,0.7,8,1.3,.,.,.
O=C(NCCCN1CCCC1=O)c1cn(-c2ccccc2)nc1-c1ccccc1,-26,-3,-7,.,-10.0,7,-0.9,-17,-9,-4.9
CC(=O)c1cccc(OCc2cc(C(=O)NC(C)Cc3cccnc3)no2)c1 (stereo not drawn),-1,-6,-3,.,-7.9,1,-0.1,-52,-73,-15
COC(=O)c1cc2sccc2n1CC(=O)N(C)c1ccccc1,7,-16,-2,-5,0.6,-9,1.2,4,6,-0.5
CCOC(=O)C(C(=O)NCC1CCCO1)C1CCCCC1 (stereo not drawn),6,-9,2,-1,1.2,8,0.5,.,.,.
O=C(NCc1ccc(F)cc1)C1CCCN(S(=O)(=O)c2cccc3nonc23)C1 (stereo not drawn),0,6,-1,.,2.9,-4,-0.7,-2,2,0.7
COc1ccccc1NC(=O)c1ccc(COc2ccccc2OC)o1,16,4,13,-3,4.8,-7,-0.4,.,.,.
Cc1cccc(CC2S/C(=N/c3cccc(C)n3)NC2=O)c1 (stereo not drawn),-1,-9,3,9,-5.8,-9,-0.1,24,20,2.4
CC(c1cccnc1)N(CCN(C)C)C(=O)Nc1ccc(Cl)c(Cl)c1 (stereo not drawn),1,-3,40,-14,-4.5,-8,0.5,-28,-37,14
O=[N+]([O-])c1cccc(S(=O)(=O)NCC2CCCO2)c1 (stereo not drawn),-1,-9,-18,-8,6.7,.,1.0,.,.,.
COc1cccc(C2C(C#N)=C(N)N(N(C)C)C3=C2C(=O)CCC3)c1OC (stereo not drawn),3,-1,8,-16,4.6,31,0.0,6,17,-4.7
COCCOC1CCN(C(=O)C2CCC(=O)N(CCc3cccc(F)c3)C2)CC1 (stereo not drawn),3,4,-14,-3,2.1,3,-1.2,9,10,-0.3
O=C(/C=C/c1ccco1)Nc1ccc(N2CCCC2)cc1,-16,3,-2,4,3.7,.,-0.1,-2,17,0.4
COc1ccc(CCNS(=O)(=O)c2ccccc2)cc1OC,0,-7,-9,4,0.8,-3,0.3,.,.,.
Cn1c(=O)c2c(ncn2CC(=O)NCc2cccnc2)n(C)c1=O,2,9,-16,-3,1.1,4,0.4,.,.,.
CC(=O)c1cccc(NC(=O)N2CCCC2C(=O)NCCc2ccccc2)c1 (stereo not drawn),0,-13,-3,-8,1.0,-12,0.2,.,.,.
N#CC(=C=[N-])c1nc2ccccc2nc1-[n+]1cccc(NC(=O)c2ccc(F)cc2)c1,.,-5,0,1,1.5,46,-0.5,15,-11,-0.3
COCCNC(=O)c1cccc(OC2CCN(Cc3ccccc3OC(F)F)CC2)c1,-2,-11,-5,.,9.8,.,0.0,6,0,-4.2
CCOC(=O)C1=C(C)N(c2ccc(Cl)cc2)C(=O)NC1c1cccc([N+](=O)[O-])c1 (stereo not drawn),-6,-20,-17,6,-2.2,-26,0.2,-13,-12,1.8
CCN1CCN(Cc2ccc(NC(=O)Nc3ccccc3)cc2)CC1,3,3,1,.,-1.3,60,0.4,.,.,.
CCC(C)N=CC1=C(O)C(C(=O)OC)C(C)(C)CC1=O (stereo not drawn),-10,0,-3,-1,-0.5,-5,1.3,.,.,.
CCCCCCOC(=O)NCC(O)c1ccccc1 (stereo not drawn),-6,5,3,-9,-5.9,-4,-2.7,.,.,.
CCOc1ccc(S(=O)(=O)Nc2ccc(Cl)cn2)c(C)c1C,0,33,-14,5,3.3,-6,0.5,.,.,.
CC(C)C(OC(=O)c1ccco1)C(=O)NCc1ccco1 (stereo not drawn),11,3,-2,.,-3.2,0,-0.4,.,.,.
Cc1cc(C)cc(NC(=S)NC(=O)C2CC2)c1,-4,-18,-18,6,2.5,9,-0.2,-14,-15,-3.3
O=C(CSc1nc2ccccc2c(=O)[nH]1)Nc1ccccc1N1CCOCC1,23,2,6,15,-7.0,.,0.3,9,19,2.2
CCN1C(=O)[C@@H]2[C@H](C1=O)[C@@H]1C(=O)Nc3ccccc3C(=O)N1[C@@H]2c1cccc(C)c1,-5,.,.,6,7.0,-14,-0.9,1,-2,9.5

# Other entries follow.
SMILES,Beta2AR agonist,Calb FLC,T cruzi repl,Beta cell apopt,LANA-H2A inh,ALR inh,Bfl-1 A1 inh,rRNA inh HTS,rRNA inh HTS OD600,rRNA inh HTS RFP
Cc1[nH]c2ccccc2c1C(O)CN1CCN(c2cccc(C(F)(F)F)c2)CC1 (stereo not drawn),-5,-5,42,-14,-1.2,16,0.8,.,.,.
CCN(Cc1ccccc1)S(=O)(=O)CCNC(=O)c1ccc(OC)cc1,-5,13,0,-4,-2.4,-6,-0.5,-10,-9,2.2
CCn1nnc(-c2ccccc2NC(=O)c2cc(OC)cc(OC)c2)n1,-5,13,27,8,1.2,-12,-0.1,13,6,0.8
CSCCC(NC(=O)c1ccccc1Cl)C(=O)NNC(=O)c1ccccc1O (stereo not drawn),0,-1,-8,-6,6.7,-1,0.3,0,15,-2.0
CNC(=O)c1cccc(N2CCCC2=O)c1,3,9,7,-1,-0.7,-24,0.4,.,.,.
CCC(=O)N1CCN(c2cc(NCC3CCCO3)c(F)cc2[N+](=O)[O-])CC1 (stereo not drawn),-5,4,-4,-4,-1.6,2,0.1,-8,-4,-0.2
O=C(c1cc(-c2ccccc2O)on1)N1CCCC1,3,-1,-5,-2,-4.9,.,-3.0,.,.,.
CC(NC(=O)Cn1nc(C(F)(F)F)c2c1CCC2)c1ccccc1 (stereo not drawn),-2,9,-8,-2,4.3,3,1.1,.,.,.
